Anaer choline gr: growth inhibitors of anaerobic choline-fed gram-negatives, minimal medium, absorbance. calls only. actives 0.2% (n = 55,000). Gram-negative bacterium anaerobic choline minimal medium; hits give low values; many inactives read as strong as hits in the columns shown;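 active = growth z-score on choline under -2 at 7 or 20 h with little or no fall on glycerol, limits in tiers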;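 note: stock transfer was 300 nL into about 50 µL; the organism is E. coli; final concentration not given here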
Anaer choline gr early: recorded beside Anaer choline gr, whose call it bears; z-score; measured here: choline growth z-score, timepoint 1;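 score of optical density at 7 h as mean of two plates; lower means less growth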
* = called active by the depositor; i = inactive; & = joins results of further samples. The list is partial; rates above refer to the full screens.

SMILES	Anaer choline gr	Anaer choline gr early
CC(C)(C)c1csc(-c2csc(S(=O)(=O)NCc3ccccc3Cl)c2)n1	i	0.81
COc1ccc(OC)c(NC(=O)c2sc(=S)n3c2[nH]c(=O)c2cc(Cl)ccc23)c1	i	0.25
Cc1cc2c(cc1S(=O)(=O)N(C)CC(=O)NC1CC1)OC(C)C(=O)N2 (stereo unspecified)	i	-0.48
COc1ccc(NC(=O)CCc2nc3c(C)nn(-c4ccc(C)cc4)c3n(C)c2=O)c(OC)c1	i	-0.16
COc1ccc(C2C(Oc3ccccc3)C(=O)N2c2ccc(C)c(Cl)c2)cc1OC (stereo unspecified)	i	-0.37
CN(CCc1ccc(Cl)c(Cl)c1)CCN1CCCC1	i	-3.28
CCOc1ccc(NC(=O)NC2COc3ccccc3C2)cc1 (stereo unspecified)	i	-1.55
CCc1ccc(N2C(=O)N(CC(=O)N(CC)CC)C3CS(=O)(=O)CC32)cc1 (stereo unspecified)	i	0.47
Cc1cc(Br)ccc1-c1ccc(CNCCCN(C)C)o1	i	-3.19
CC1CCCN(C(=O)CCc2nc(-c3cc4ccccc4[nH]c3=O)no2)C1 (stereo unspecified)	i	-0.35
CN1C(=O)c2ccccc2Sc2cc(NC(=O)c3cnccn3)ccc21	i	-0.6
COCCCNC(=O)N1CCC2(C1)C(=O)Nc1ccccc12 (stereo unspecified)	i	-2.4
CCOc1ccc(-c2c(C)[nH]n3c(=O)c(N4CCCC4)c(C)nc23)cc1OCC	i	0.36
CCOC(=O)CN1C(=O)c2ccccc2S1(=O)=O	i	-0.94
Cn1c(=O)c2c(SCC(=O)NCC3CCCO3)nc(-c3ccccc3F)nc2n(C)c1=O (stereo unspecified)	i	-0.26
CC(C)NC(=O)CCCCn1c(=O)c2ccccc2n(CC(=O)Nc2cccc(Cl)c2)c1=O	i	-0.32
COc1ccc(NC(=O)Nc2ncc(-c3ccccc3)n2C)c(OC)c1	i	0.95
CCn1nc(-n2cnnc2)c(NS(=O)(=O)c2ccc(C3CCCCC3)cc2)c1C	i	0.94
COCCNc1nc(Nc2ccc(C)cc2)c2cnn(-c3ccccc3)c2n1	i	1.09
COc1cc(NC(=O)C2CCCN(c3ccc4cc(S(=O)(=O)N5CCCC5)ccc4n3)C2)cc(OC)c1 (stereo unspecified)	i	0.64
Cc1ccc(Cn2nc3c(S(=O)(=O)N4CCOCC4)cccn3c2=O)c(C)c1	i	-2.49
CCOc1ccc(-c2cc(-c3nc4c5c(C)c(C)oc5ncn4n3)[nH]n2)cc1	i	0.61
CCCN1C(=O)c2c(C(=O)Nc3cc(F)ccc3F)ncn2CC1(C)C(=O)NC1CCCC1 (stereo unspecified)	i	0.51
COc1ccc(Cl)cc1NC(=O)CCc1c(C)[nH]n(-c2nc(C)cs2)c1=O	i	0
C=Cc1ccc(CN2C(=O)c3ccccc3S(=O)(=O)c3ccc(C(=O)OCC4CCCO4)cc32)cc1 (stereo unspecified)	i	1.35
Cn1c(=O)n(CC(=O)N2CCCC2)c(=O)c2cc(S(=O)(=O)Nc3ccc(Cl)cc3)ccc21	i	-0.03
O=C(c1ccc(Nc2ccnc(-c3ccc(F)cc3)n2)cc1)N1CCCC1	i	-0.25
Cc1ccccc1Cn1cnc2onc(C)c2c1=O	i	-0.68
CCn1nccc1C1CCCN1C(=O)Nc1cc(OC)cc(OC)c1 (stereo unspecified)	i	-0.62
COc1ccc(-c2nc(-c3ccc4c(c3)oc(=O)n4C)no2)c(OC)c1	i	0.14
COc1ccc(Cl)cc1NC(=O)N1CCC(c2nc(-c3ccccc3)no2)CC1	i	-1
O=C(Nc1ccccc1Cl)N1CCN(c2nc3cccnc3s2)CC1	i	-1.64
CCc1ccc(C2CC(=O)NC3=C2C(=O)CC(C)(C)C3)cc1 (stereo unspecified)	i	-0.37
Cc1ccc2c(=O)cc(C(=O)Nc3c(C)n(C)n(-c4ccccc4)c3=O)oc2c1	i	-0.52
CCOc1ccc(NC(=O)Cn2nc3c4sc(N(C)C)nc4ncn3c2=O)cc1	i	-0.39
Cn1ccc2c(cc(C(=O)N3CCCC3)n2C)c1=O	i	-0.45
Cc1cc(C2CCCN2C(=O)c2ccc(F)cc2)on1 (stereo unspecified)	i	-0.44
COc1ccc(C(CNc2nn3cnnc3c3ccccc23)N2CCCC2)cc1 (stereo unspecified)	i	-0.46
CCCN1C(=O)c2c(C(=O)NCCC3=CCCCC3)ncn2CC1(C)C(=O)NCCC(C)C (stereo unspecified)	i	0.41
CCc1cc(-c2csc(S(=O)(=O)Nc3cc(C)cc(C)c3)c2)on1	i	0.67
CCc1ccc(NS(=O)(=O)c2ccc3c(c2)N(CC(=O)OC)C(=O)CS3)cc1	i	0.17
O=C(NC1CCCCC1)c1nc(Nc2ccccc2)c2ccccc2n1	i	1.42
O=C(Cn1c(=O)sc2cc(S(=O)(=O)N3CCc4ccccc43)ccc21)N1CCCC1	i	1.59
COc1ccc(N2CCN(C(=O)c3[nH]c(C)c(S(=O)(=O)N4CCOCC4)c3C)CC2)cc1	i	-0.41
Cc1c(CNCC2CCCO2)c(C(=O)O)c(C)n1Cc1ccccc1Cl (stereo unspecified)	i	-1.1
COc1ccc(C2CC(=O)C3=C(C2)Nc2ccccc2NC3c2ccccc2OCc2ccccc2)cc1OC (stereo unspecified)	i	0.14
Cc1ccc(N(Cc2nc3nc(C)cc(C)n3n2)S(=O)(=O)c2ccc(C)cc2)cc1	i	0.87
COc1ccc(NC(=O)NC(C(=O)N2CCc3ccccc32)C(C)C)cc1 (stereo unspecified)	i	1.03
Cc1cc(C)c2c(-n3cccc3)nn(CCCC(=O)NCc3ccccc3)c2n1	i	-0.07
CN(C)S(=O)(=O)c1ccc(-c2nnc(C(=O)NC3CC3)o2)cc1	i	-0.64
Cc1nn(-c2ccccc2)c2sc(C(=O)Nc3ccc(F)cc3Cl)cc12	i	1.34
O=C(C1=COCCO1)N1CCN(c2nc3ccc(F)cc3s2)CC1	i	0.82
Cc1cc(CNC(=O)NCC(C)C)c(C)n1-c1ccc(Cl)cc1	i	0.33
CN(C)C(=O)c1ccc2c(c1)N(CC(=O)NCCC1=CCCCC1)C(=O)CO2	i	-0.48
CCOc1ccc2oc(C)c(C(=O)Nc3ccccc3OCC)c2c1	i	1.27
CCc1ccc(-n2ncc(-c3cc(C(=O)NCC4CCCO4)c4ccccc4n3)c2C)cc1 (stereo unspecified)	i	0.65
CCc1ccc(S(=O)(=O)N2C[C@H]3CN(S(=O)(=O)c4ccccc4)C[C@@H](C2)O3)cc1	i	0.94
CCOC(=O)c1c(CSc2ccccc2)n(C)c2ccc(O)cc12	i	1.31
CCCN1C(SCc2ccccc2F)=NS(=O)(=O)c2ccccc21	i	0.52
C=CCNc1oc(-c2ccccc2)nc1S(=O)(=O)c1ccc(Cl)cc1	i	0.72

Complete entries as entered above. Order of screens: Anaer choline gr, Anaer choline gr early
Entry for Cc1cc(C)c2c(-n3cccc3)nn(CCCC(=O)NCc3ccccc3)c2n1 = i, -0.07
Entry for COc1ccc(C2CC(=O)C3=C(C2)Nc2ccccc2NC3c2ccccc2OCc2ccccc2)cc1OC (stereo unspecified) = i, 0.14

The listing continues.
SMILES	Anaer choline gr	Anaer choline gr early
O=C(CSc1ncnc2nc(N3CCCC3)sc12)Nc1ccc2c(c1)OCCO2	i	-0.11
O=C(O)CN(CCOCCOCCN(CC(=O)O)CC(=O)O)CC(=O)O	i	0.63
CN1[C@@H]2CCC[C@H]1CC(NC(=O)c1nn(C)c3ccccc13)C2 (stereo partly specified)	i	-1.67&0.56
CCOC(=O)c1c(C)[nH]c(C)c1S(=O)(=O)N1CCC(C(=O)Nc2cc(Cl)ccc2C)CC1	i	0.89
Cc1ccc2nc(N3CCC(C(=O)NCCN4CCN(c5cccc(Cl)c5)CC4)CC3)[nH]c2c1	i	-0.85
O=C(CSc1nc2ccccc2c(=O)[nH]1)Nc1cccc(Br)c1	i	1.48
CCS(=O)(=O)N1CCN(c2cc(Nc3ccc(C)cc3)nc(C)n2)CC1	i	-0.29
Cc1cccc(Cn2c(SCc3ccc(C(=O)NCCN4CCOCC4)cc3)nc3ccncc32)c1	i	0.91
COc1cc2[nH]c(=O)n(Cc3ccc(C(=O)Nc4ccccc4)cc3)c(=O)c2cc1OC	i	-0.24
CCC1OC(=O)C(C)C(OC2C[C@@](C)(OC)C(O)C(C)O2)C(C)C(OC2OC(C)CC(N(C)C)C2O)[C@](C)(OC)CC(C)C(=O)C(C)C(O)[C@]1(C)O (stereo partly specified)	i	-2.31
CCc1ccc(OCc2ccccc2C(=O)Nc2ccc3nc(C)cc(N)c3c2)cc1	i	-3.58
COC1C(O)CC(=O)OC(C)CC=CC=CC(OC2CCC(N(C)C)C(C)O2)C(C)CC(CC=O)C1OC1OC(C)C(OC2C[C@](C)(O)C(O)C(C)O2)C(N(C)C)C1O (stereo partly specified)	i	-2.5
CCCN[C@H]1CCc2nc(N)sc2C1	i	0.53&0.51&0.7
CCOC(=O)C1CCC(CNC(=O)N2CCCC2c2ccc(C)cc2)CC1 (stereo unspecified)	i	0.11
c1nc(N2CCCCC2)c2nc3n(c2n1)CCCCC3	i	-0.67
COc1ccc(OC)c(CNC(=O)CCC(=O)N2Cc3cccc(OC)c3Oc3ncccc32)c1	i	-0.22
Cc1cc(C)nc(NC(=O)Nc2cccc(Cl)c2)n1	i	-1.32
Cc1cc(C)c(-c2nc(-c3ccc(Br)cc3)no2)c(=O)[nH]1	i	-0.24
c1ccc(CCNc2ncnc3c(-c4ccccc4)noc23)cc1	i	1.32
C=Cc1ccc(CSc2nc3c(-c4ccccc4)cn(C)c3c(=O)n2CCCOC)cc1	i	1.56
CN(C)S(=O)(=O)c1ccc2c(c1)cc(C(=O)NCCCN1CCCC1)n2Cc1ccncc1	i	-0.16
COc1cccc(NC(=O)Cn2ncn3nc4c(c3c2=O)CCCC4)c1	i	0.3
NC(=O)Nc1sc(-c2ccc(F)cc2)cc1C(N)=O	i	-1.07&-1.18
Cc1cc(C)c(C)c(S(=O)(=O)N2CCC(c3noc(-c4ccc(F)cc4)n3)CC2)c1C	i	0.14
Cc1nc(C)c(C(=O)N2CCc3cc(-c4csc(C5CC5)n4)ccc32)s1	i	-0.24
CCC(C)N1CC(=O)N(c2ccc(Cl)cc2)[C@@H]2CS(=O)(=O)C[C@@H]21 (stereo partly specified)	i	0.12
O=C(Cn1c(=O)c2sccc2n2c(=S)sc(-c3ccccc3)c12)OCc1ccccc1	i	-0.9
Cc1nc(OCC(=O)N2CCc3ccccc32)c2c(-c3ccccc3)noc2n1	i	0.08
Cc1cc(S(=O)(=O)Nc2cc3c(cc2Oc2ccccc2)n(C)c(=O)c(=O)n3C)ccc1F	i	-0.68
Clc1cccc(-c2ccc(SCc3nc(-c4ccc5c(c4)OCO5)no3)nn2)c1	i	0.25
Cc1nc(CCNC(=O)[C@H]2CCCN2S(=O)(=O)c2cccc3nsnc23)cs1	i	-2.12
O=C(c1ccc(NC(=O)N2CCCCc3ccccc32)cc1)N1CCN(c2ncccn2)CC1	i	-1.01
CCC(Sc1nnc(-c2ccccc2NC(C)=O)c(=O)[nH]1)C(=O)Nc1ccc2c(c1)OCCO2 (stereo unspecified)	i	-1.57
COC(=O)C(C)(N)Cc1ccc(O)cc1 (stereo unspecified)	i	0.44
Cc1ccc(Cl)cc1-n1nnc(-c2nc(-c3ccccc3)no2)c1C	i	1.81
O=C(C1CCCN(S(=O)(=O)c2cccc3nsnc23)C1)N1CCN(c2ccccn2)CC1 (stereo unspecified)	i	0.28
Cn1nc(C(=O)NCc2ccccc2)c2c1CCN(C(=O)C1CCCCC1)C2	i	0.4
CCC(=O)C1=C(c2ccc(C)cc2)N(C(=O)CC)n2cnnc2S1	i	0.49
CCc1nc(N)nc(N)c1-c1ccc(Cl)cc1	i	0.72
O=c1c2cc3c(cc2nc(SCc2nc(-c4ccc5c(c4)OCO5)no2)n1C1CCCC1)OCO3	i	0
O=C(Nc1ccc2c(c1)nc1n2CCN(Cc2ccccc2)C1)c1ccc(Cl)cc1	i	-1.05
Cn1cc(S(=O)(=O)N2CCCCC2)cc1C(=O)N1CCCCC1	i	-1.76
CCOC(=O)c1c(NC(=O)c2ccc3c(c2)OCCO3)sc2c1CC(C)(C)NC2(C)C	i	-0.09
COc1cccc(C2CC(=O)Nc3nc(N)[nH]c(=O)c32)c1OC (stereo unspecified)	i	-2.2
COc1ccc(NC(=O)C2c3cc(OC)c(OC)cc3C(=O)N(C)C2c2cccnc2)cc1OC (stereo unspecified)	i	-0.74
COc1ccc(-c2nnc(SCc3cc(=O)n4[nH]c(-c5ccccc5)nc4n3)n2C)cc1	i	-1.27
CCn1c(=O)c(N2CCC(C(=O)Nc3ccc(OC)c(Cl)c3)CC2)c(C)n(-c2ccccc2)c1=O	i	-0.72

Grouped by structure, the entries above containing two or more sulfur atoms.
SMILES	Anaer choline gr	Anaer choline gr early
CC(C)(C)c1csc(-c2csc(S(=O)(=O)NCc3ccccc3Cl)c2)n1	i	0.81
COc1ccc(OC)c(NC(=O)c2sc(=S)n3c2[nH]c(=O)c2cc(Cl)ccc23)c1	i	0.25
CCc1cc(-c2csc(S(=O)(=O)Nc3cc(C)cc(C)c3)c2)on1	i	0.67
CCc1ccc(NS(=O)(=O)c2ccc3c(c2)N(CC(=O)OC)C(=O)CS3)cc1	i	0.17
O=C(Cn1c(=O)sc2cc(S(=O)(=O)N3CCc4ccccc43)ccc21)N1CCCC1	i	1.59
CCc1ccc(S(=O)(=O)N2C[C@H]3CN(S(=O)(=O)c4ccccc4)C[C@@H](C2)O3)cc1	i	0.94
CCCN1C(SCc2ccccc2F)=NS(=O)(=O)c2ccccc21	i	0.52
O=C(CSc1ncnc2nc(N3CCCC3)sc12)Nc1ccc2c(c1)OCCO2	i	-0.11
Cc1nc(C)c(C(=O)N2CCc3cc(-c4csc(C5CC5)n4)ccc32)s1	i	-0.24
O=C(Cn1c(=O)c2sccc2n2c(=S)sc(-c3ccccc3)c12)OCc1ccccc1	i	-0.9
Cc1nc(CCNC(=O)[C@H]2CCCN2S(=O)(=O)c2cccc3nsnc23)cs1	i	-2.12
O=C(C1CCCN(S(=O)(=O)c2cccc3nsnc23)C1)N1CCN(c2ccccn2)CC1 (stereo unspecified)	i	0.28
